# Compound activity deposited in PubChem BioAssay by several laboratories.
# RGS16-Gao – regulators of human RGS16-Galphao interaction; AID 1441; bead-based flow cytometry RGS16-Galphao binding, fluorescence; actives lie on both sides; binding response (% of control), % at 10 µM; O15492+P09471; 0.38% of 220,000 active;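 active = below 25% or above 175%, edge rows of some plates excepted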;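 note: Galphao activated by GDP with aluminum fluoride before binding; 100% = wells without compound and 0% = beads without RGS; some results beyond the cut were filed as inactive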
# Target sequence (O15492 whole entry, looked up): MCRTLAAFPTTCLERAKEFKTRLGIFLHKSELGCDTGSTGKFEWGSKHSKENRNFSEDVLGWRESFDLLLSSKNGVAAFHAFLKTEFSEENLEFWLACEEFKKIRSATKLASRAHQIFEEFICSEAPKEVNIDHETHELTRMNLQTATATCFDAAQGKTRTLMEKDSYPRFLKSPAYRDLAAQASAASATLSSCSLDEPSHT
# Target sequence (P09471 whole entry, looked up): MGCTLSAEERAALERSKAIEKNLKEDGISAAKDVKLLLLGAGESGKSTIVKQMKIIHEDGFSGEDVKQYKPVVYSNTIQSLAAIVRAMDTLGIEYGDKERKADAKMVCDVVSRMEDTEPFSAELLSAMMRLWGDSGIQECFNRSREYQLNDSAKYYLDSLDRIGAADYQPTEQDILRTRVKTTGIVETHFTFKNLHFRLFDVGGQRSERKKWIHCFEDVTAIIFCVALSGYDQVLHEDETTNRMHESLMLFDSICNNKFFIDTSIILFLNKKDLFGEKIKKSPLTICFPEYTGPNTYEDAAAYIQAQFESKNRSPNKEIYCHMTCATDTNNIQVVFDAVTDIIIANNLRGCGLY
# Insulin prom inh – TRM-6 insulin promoter activity inhibition; TRM-6 cells (human fetal islet line), insulin promoter-eGFP reporter, imaging; reporter expression induced with tamoxifen; inhibition, % at 2 µM; 0.9% of 130,000 active; AID 1273;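 active = inhibition above the mean plus 3 SD, with well images judged a real hit on visual review, cut at about 60% in these data, passing the limit was not always enough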
# PKD1 inh – blocks activity of human protein kinase D1 | Q15139 | PKD1 kinase fluorescence polarization assay | inhibition, %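 (about 10 µM by stock and volumes)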 | 0.056% of 200,000 active;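 active = inhibition of 50% or more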;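 note: controls were vehicle for no effect and a reference inhibitor for full effect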
# GALR2 agonist – activates the human galanin receptor 2 | O43603 | GALR2-expressing cells, agonist activation read-out | activation, %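 (tested at 5 µM)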 | 0.48% of 140,000 active;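 active = above mean plus 3 SD of all compounds, about 5% in these data, not always enough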;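 note: 0% = vehicle buffer wells and 100% = reference agonist at full effect; tested in CHO reporter cells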
# Target sequence (O43603 whole entry, looked up): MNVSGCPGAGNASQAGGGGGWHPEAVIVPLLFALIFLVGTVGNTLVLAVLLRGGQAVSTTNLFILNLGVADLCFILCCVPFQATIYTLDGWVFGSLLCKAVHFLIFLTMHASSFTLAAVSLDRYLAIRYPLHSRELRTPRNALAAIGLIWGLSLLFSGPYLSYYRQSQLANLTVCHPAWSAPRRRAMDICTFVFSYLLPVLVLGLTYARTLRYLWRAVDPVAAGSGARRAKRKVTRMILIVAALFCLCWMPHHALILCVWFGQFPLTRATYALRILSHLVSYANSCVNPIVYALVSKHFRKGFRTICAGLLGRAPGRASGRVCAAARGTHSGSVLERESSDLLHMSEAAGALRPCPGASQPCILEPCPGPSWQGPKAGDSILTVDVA
# HSV replic up – HSV replication enhancement; maximum fold increase; 0.005% of 220,000 active; HSV replication augmentation in cells, fold increase; AID 1956;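 active = peak rise of 1.5-fold or more in the series; tested in PC3 cells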;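 note: first round at 10 µM; read as green reporter fluorescence; hits show the peak of a series up to 25 µM; 1 = signal of infected wells without compound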
# Insulin prom inh cell count – recorded beside Insulin prom inh, whose call it bears; normalized cell count, %; measured here: cell count, toxicity; reference of the scale not given here;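 cells exposed to compound for 48 h; stained nuclei by imaging scaled within each plate; lower means fewer cells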
# HSV replic up primary fold – second read-out of HSV replic up, no call of its own (marks repeat the call); fold increase; compound at 10 µM; measured here: primary screen fold increase 10 uM; tested in PC3 cells;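 GFP signal in the first replicate; 1 = infected wells without compound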
# * hit, by the source's call; i = inactive; nt = no result given. No enrichment for hits; overall some 1.3% were active at least once.
nr | SMILES | Insulin prom inh cell count | HSV replic up | PKD1 inh | Insulin prom inh | RGS16-Gao | GALR2 agonist | HSV replic up primary fold
1 | Cc1ccccc1C(=O)NCc1ccncc1 | 104 | i | -10 | 30 | 96 | -1.9 | 0.99
2 | CC(Sc1nc(N2CCCCC2)c2c(c1C#N)CCCC2)C(=O)O (centres undefined) | 99 | i | -8 | -5 | 102 | -0.9 | 1.1
3 | COc1ccccc1N(CC(=O)NC(C)C)S(=O)(=O)c1cccs1 | nt | i | -9 | nt | 91 | -2.1 | 1.1
4 | CN(CCOC(=O)C1c2ccccc2Oc2ccccc21)C(C)(C)C | 65 | i | 1 | 8 | 104 | -3.2 | 0.89
5 | CC1(C)CC(=O)C2=C(C1)N(c1ccc(F)cc1)C(=O)CC2c1ccsc1 (centres undefined) | nt | i | -10 | nt | 91 | -0.6 | 1
6 | CC1(C)C(=O)C2(CCCCC2)C(=O)OC1c1cccs1 (centres undefined) | 103 | i | 8 | -18 | 102 | 2.4 | 0.91
7 | CC(C)=CCCC1=CCC2C(=O)NNC(=O)C2C1 (centres undefined) | 170 | i | -2 | 16 | 101 | -0.4 | 0.96
8 | O=C(Nc1ccc2c(c1)CCC2)c1cccs1 | 144 | i | -9 | 10 | 117 | nt | 0.92
9 | CCC1CCCCN1CCCNC(=O)c1cc2c(=O)[nH]c3ccccc3c2n1C (centres undefined) | nt | i | -2 | nt | 100 | nt | 1
10 | CC1CCCC(C(=O)O)N1C(=O)CCS (centres undefined) | 85 | i | -4 | 18 | 136 | -1.7 | 1
11 | Cc1ccccc1-n1c(O)c(C=NC2CCS(=O)(=O)C2)c2ccccc2c1=O (centres undefined) | nt | i | nt | nt | 96 | nt | 1.1
12 | O=C(c1ccc2c(c1)[nH]c(=S)n1c3ccccc3nc21)N1CCN(c2cccc(Cl)c2)CC1 | 126 | i | 1 | -18 | 101 | nt | 0.68
13 | O=C(C1=C[C@@H](c2ccccc2)C[C@@H](OCc2ccc(CO)cc2)O1)N1CCN(Cc2ccc3c(c2)OCO3)CC1 | nt | i | 4 | nt | 102 | nt | 0.56
14 | CC(=O)c1ccc(-n2nnnc2SCC(=O)Nc2sc(C)c(C)c2C#N)cc1 | 117 | i | -16 | -20 | 123 | 0.6 | 1.1
15 | COc1cccc(C=Nc2ccccc2C(=O)Nc2ccccc2)c1O | 119 | i | -2 | -9 | 107 | -0.2 | 0.88
16 | CO/N=C(\N)c1nonc1N | nt | i | nt | nt | 114 | nt | 0.9
17 | COc1ccc(Cc2nnc(SCC(=O)NC3CCCCC3)n2C)cc1 | 148 | i | -13 | 3 | 105 | -1.9 | 0.99
18 | CCCS(=O)(=O)N1CCN(C(=O)c2cc(OC)cc(OC)c2)CC1 | 106 | i | -7 | 9 | 100 | 0.4 | 0.62
19 | COc1ccc(Cl)cc1NC(=O)C(=O)N/N=C/c1cc(C)n(-c2ccc(C)cc2)c1C | 73 | i | -8 | 3 | 80 | -2.2 | 0.96
20 | O=C(O)c1cccn1Cc1ccccc1F | nt | i | 2 | nt | 101 | -0.7 | 0.87
21 | CCc1cccc(N(C)C(N)=Nc2cccc3ccccc23)c1 | nt | i | nt | nt | 102 | nt | 0.8
22 | Cc1ccnc(SCC(=O)Nc2oc(-c3ccccc3)c(-c3ccccc3)c2C#N)n1 | 104 | i | -3 | -23 | 111 | -0.5 | 0.95
23 | C#CCOc1c(Cl)cc(/C=N/NC(N)=S)cc1OCC | 72 | i | -7 | -8 | 100 | -1.3 | 0.87
24 | COCc1cc(C)n(CC(=O)Nc2c(C)cccc2C)c(=O)c1C#N | nt | i | -3 | nt | 105 | nt | 0.95
25 | CC(C)(C)c1nnc(NC(=O)c2cccnc2Cl)s1 | nt | i | 8 | nt | 102 | nt | 1.2
26 | CC(Oc1ccccc1)C(=O)N1CCN=C1SCc1ccccc1F (centres undefined) | nt | i | nt | nt | 97 | nt | 0.79
27 | CCOc1ccc(N2C(=O)CC(NCCc3ccc(S(N)(=O)=O)cc3)C2=O)cc1 (centres undefined) | 90 | i | -7 | 6 | 104 | -0.3 | 0.93
28 | CCOC(=O)Nc1sc(NS(=O)(=O)c2ccc(C)cc2)nc1C | 147 | nt | 6 | 17 | 98 | -0.2 | nt
29 | CCNC(=O)/C(=C/c1ccco1)NC(=O)/C=C/c1ccccc1 | 61 | i | 8 | 19 | 90 | -2.2 | 0.94
30 | CC(CCc1ccccc1)NC(=O)C1CCCN(C(=O)c2cc3sccc3n2C)C1 (centres undefined) | nt | i | 0 | nt | 104 | -2.2 | 0.7
31 | O=C1OC(NC(=O)c2ccccc2)C(N2CCOCC2)=C1Cl (centres undefined) | 118 | i | -6 | -162 | 99 | -2.0 | 0.79
32 | COc1cc(C)nc(N(C)S(=O)(=O)c2ccccc2Cl)n1 | 86 | i | -7 | -300 | 104 | -2.1 | 1.2
33 | CC(O)CNCCCCOc1ccc(OCc2ccccc2)cc1 (centres undefined) | nt | i | -1 | nt | 101 | nt | 0.87
34 | CC(C)(C)c1ccc(C(=O)OCCNC(=O)c2c(Cl)nc3ccccn23)cc1 | 79 | i | -8 | -393 | 105 | -3.3 | 0.82
35 | COc1ccc(/C=C2\SC(=S)N(Cc3cccnc3)C2=O)cc1C | 100 | i | 8 | -39 | 98 | -0.6 | 1
36 | Cc1ccc(C)c(OCC(=O)Nc2nc3ccc([N+](=O)[O-])cc3s2)c1C | 108 | i | 7 | 8 | 107 | -1.2 | 0.8
37 | CN(Cc1nc(-c2cnccn2)no1)C1CC(C)(C)NC(C)(C)C1 | nt | i | -8 | nt | 101 | nt | 0.94
38 | COc1ccc(CN2CN=C(Nc3nc4ccccc4s3)NC2)cc1 | 98 | i | -9 | -65 | 96 | -2.2 | 1.1
39 | O=C(Nc1ccccc1)OCc1cc(-c2ccccc2Cl)on1 | nt | nt | 6 | nt | 98 | -2.8 | nt
40 | COc1ccc(N2CCCn3c2nc2c3c(=O)n(Cc3ccccc3F)c(=O)n2C)c(OC)c1 | nt | i | -9 | nt | 94 | -2.1 | 0.75
41 | O=C(NNc1c(Cl)cccc1Cl)c1c(F)cccc1Cl | nt | i | nt | nt | 98 | nt | 1.1
42 | CC(=O)NC1CC2CCCC(C1)N2CC(=O)NCc1ccc(F)cc1 (centres undefined) | 78 | i | -1 | 10 | 102 | -0.8 | 0.82
43 | Cc1cccc(N=C2NC(=O)/C(=C3/C(=O)N(C)c4ccccc43)S2)c1C | nt | i | -12 | nt | 101 | -0.4 | 0.88
44 | CCc1nc(-n2[nH]c(=O)c3ccccc3c2=O)c2c3c(sc2n1)CCCC3 | 127 | i | 13 | 7 | nt | 0.5 | 1
45 | O=C(Cc1ccccc1)N/N=C/c1ccc2c(c1)OCO2 | 109 | i | -1 | -18 | 88 | nt | 0.99
46 | COc1cccc(-n2c(SCC(=O)c3c[nH]c4ccccc34)nc3ccccc3c2=O)c1 | 127 | i | -10 | -22 | 110 | 2.1 | 0.81
47 | O=C(Nc1sc2c(c1C(=O)NCc1cccnc1)CCCC2)c1ccco1 | 134 | i | -6 | 31 | 114 | -0.4 | 0.71
48 | Cc1nonc1CC(=O)N1CCc2c([nH]c3ccccc23)C1c1ccccc1F (centres undefined) | nt | i | 0 | nt | 103 | nt | 1.2
49 | CCc1ccc(CNc2ccc(O)cc2)cc1 | 114 | i | -13 | 13 | 105 | -1.9 | 0.93
50 | CCC(=O)NCCCNc1nc2c(C)cccc2cc1C#N | nt | i | 4 | nt | 76 | nt | 0.91
51 | N#Cc1c(N2CCOCC2)nsc1-c1ccc(C(F)(F)F)cc1 | nt | i | nt | nt | 100 | nt | 1
52 | CCOc1ccc(-n2c(=O)c3sccc3n(CC(=O)Nc3cccc(OC)c3)c2=O)cc1 | nt | i | -2 | nt | 94 | nt | 0.94
53 | CCn1c(SCC(=O)N/N=C/c2ccncc2)nc2ccccc21 | nt | i | nt | nt | 89 | nt | 0.92
54 | CCn1c2ccccc2c2cc(N=C3SC(CC(=O)Nc4ccccc4OC)C(=O)N3CCOC)ccc21 (centres undefined) | 77 | i | -1 | -45 | 106 | -1.1 | 0.86
55 | CCOc1ccc(CNC(=O)C2CCN(S(=O)(=O)N3CCCC3)CC2)cc1OC | 98 | i | 5 | 57 | 104 | -2.6 | 0.97
56 | CC(NC(=S)Nc1c(Cl)cccc1OC(F)F)C(C)(C)C (centres undefined) | nt | i | -6 | nt | 102 | 0.1 | 1
57 | Cc1ccc(C)c(NC(=S)Nc2ncccc2C)c1 | nt | i | -4 | nt | 98 | nt | 1.2
58 | Cc1ccc(SCCC(=O)Nc2cccc(N(C)S(C)(=O)=O)c2)cc1 | 120 | i | 1 | 26 | 121 | -2.6 | 0.84
59 | CCOC(=O)c1c(C)[nH]c(C)c1C(=O)COC(=O)c1cc2ccccc2cc1O | nt | i | -9 | nt | 101 | -0.4 | 0.79
60 | CCCSc1nc(N)cc(=O)[nH]1 | nt | i | -8 | nt | 112 | -1.2 | 1.1

# Part of the list above in order of heavy-atom count, high to low.
nr | SMILES | Insulin prom inh cell count | HSV replic up | PKD1 inh | Insulin prom inh | RGS16-Gao | GALR2 agonist | HSV replic up primary fold
54 | CCn1c2ccccc2c2cc(N=C3SC(CC(=O)Nc4ccccc4OC)C(=O)N3CCOC)ccc21 (centres undefined) | 77 | i | -1 | -45 | 106 | -1.1 | 0.86
40 | COc1ccc(N2CCCn3c2nc2c3c(=O)n(Cc3ccccc3F)c(=O)n2C)c(OC)c1 | nt | i | -9 | nt | 94 | -2.1 | 0.75
52 | CCOc1ccc(-n2c(=O)c3sccc3n(CC(=O)Nc3cccc(OC)c3)c2=O)cc1 | nt | i | -2 | nt | 94 | nt | 0.94
55 | CCOc1ccc(CNC(=O)C2CCN(S(=O)(=O)N3CCCC3)CC2)cc1OC | 98 | i | 5 | 57 | 104 | -2.6 | 0.97
47 | O=C(Nc1sc2c(c1C(=O)NCc1cccnc1)CCCC2)c1ccco1 | 134 | i | -6 | 31 | 114 | -0.4 | 0.71
43 | Cc1cccc(N=C2NC(=O)/C(=C3/C(=O)N(C)c4ccccc43)S2)c1C | nt | i | -12 | nt | 101 | -0.4 | 0.88
58 | Cc1ccc(SCCC(=O)Nc2cccc(N(C)S(C)(=O)=O)c2)cc1 | 120 | i | 1 | 26 | 121 | -2.6 | 0.84
53 | CCn1c(SCC(=O)N/N=C/c2ccncc2)nc2ccccc21 | nt | i | nt | nt | 89 | nt | 0.92
51 | N#Cc1c(N2CCOCC2)nsc1-c1ccc(C(F)(F)F)cc1 | nt | i | nt | nt | 100 | nt | 1
50 | CCC(=O)NCCCNc1nc2c(C)cccc2cc1C#N | nt | i | 4 | nt | 76 | nt | 0.91
56 | CC(NC(=S)Nc1c(Cl)cccc1OC(F)F)C(C)(C)C (centres undefined) | nt | i | -6 | nt | 102 | 0.1 | 1
41 | O=C(NNc1c(Cl)cccc1Cl)c1c(F)cccc1Cl | nt | i | nt | nt | 98 | nt | 1.1
57 | Cc1ccc(C)c(NC(=S)Nc2ncccc2C)c1 | nt | i | -4 | nt | 98 | nt | 1.2
49 | CCc1ccc(CNc2ccc(O)cc2)cc1 | 114 | i | -13 | 13 | 105 | -1.9 | 0.93
60 | CCCSc1nc(N)cc(=O)[nH]1 | nt | i | -8 | nt | 112 | -1.2 | 1.1

# Other results follow:
nr | SMILES | Insulin prom inh cell count | HSV replic up | PKD1 inh | Insulin prom inh | RGS16-Gao | GALR2 agonist | HSV replic up primary fold
61 | Cc1ccc(C(C(=O)NCc2ccco2)N(Cc2ccco2)C(=O)CNC(=O)c2ccco2)cc1 (centres undefined) | nt | i | -3 | nt | 101 | -0.5 | 0.94
62 | Cc1ccc(C)n1-c1ccc(N2CCOCC2)nc1 | 56 | i | 1 | -381 | 77 | -1.3 | 1.1
63 | COc1ccccc1C(CC(N)=O)c1ccco1 (centres undefined) | 100 | i | -8 | 0 | 101 | -2.4 | 1
64 | CCNc1nc(Oc2ccc(C(=O)OC)cc2)nc(SC)n1 | 101 | i | 0 | 3 | 79 | -2.1 | 0.85
65 | O=c1c2[nH]c3cccc(Cl)c3c2ncn1Cc1ccco1 | nt | i | nt | nt | 99 | nt | 0.87
66 | Nc1nonc1C(=O)NCCNCc1cc(Br)ccc1OCc1ccc(F)cc1 | nt | i | -1 | nt | 102 | -3.8 | 0.95
67 | CCN(CC)S(=O)(=O)c1ccc(Oc2ccccc2)c(N)c1 | nt | i | 1 | nt | 102 | nt | 0.83
68 | CCOC(=O)CNC(=O)CSc1nnc(-c2ccncc2)n1-c1ccc(Cl)cc1 | 76 | i | -5 | -28 | 102 | -0.3 | 1
69 | O=C(c1cccc2c1-c1ccccc1C2)N1CCCCC1 | nt | i | nt | nt | 101 | nt | 1
70 | O=C1C2C(C(=O)N1/N=C/c1ccco1)C1C=CC2C12CC2 (centres undefined) | 90 | i | 5 | 22 | 90 | -0.4 | 0.83
71 | O=C(NCC1CCCO1)c1ccc(C(=O)NCC2CCCO2)cc1 (centres undefined) | 179 | i | -8 | 16 | 97 | -0.3 | 1
